Source: PubChem BioAssay (National Center for Advancing Translational Sciences (NCATS))
LASV entry inh = blocks Lassa virus binding to or entry into cells | AID 540256 | Lassa virus pseudotype entry inhibition, cell reporter; control for the full effect not named in the record | Potency, µM (doses to about 37.9 µM), without a hit: at the top dose activity change, negative = inhibition, usual class: inhibitors | actives 1.2% (n = 300,000); active means well fitted inhibition curve with a large enough effect; inconclusive means small, poorly fitted or top-dose-only effect, or effect the other way; inactive means flat fitted curve, though single readings scatter; tested in HEK293 cells; note: % is set by controls: 0 for no effect and ±100 for the full control effect; nearly all actives have a fitted effect of over 50% in size; luciferase read-out
Cruzain Triton = blocks cruzain activity in presence of Triton detergent; purified cruzain, Z-FR-AMC fluorescence, 0.01% Triton; AID 1478; P25779; Potency, µM, for inactives: max response, negative = inhibition, hits mostly inhibitors; actives 0.43% (n = 200,000);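 note: plate controls were neutral wells for no effect and buffer without enzyme for full effect; nearly all actives have a fitted effect of over 40% in size; top concentration of the series not given in the record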
Target sequence (P25779 123-467 limits assumed): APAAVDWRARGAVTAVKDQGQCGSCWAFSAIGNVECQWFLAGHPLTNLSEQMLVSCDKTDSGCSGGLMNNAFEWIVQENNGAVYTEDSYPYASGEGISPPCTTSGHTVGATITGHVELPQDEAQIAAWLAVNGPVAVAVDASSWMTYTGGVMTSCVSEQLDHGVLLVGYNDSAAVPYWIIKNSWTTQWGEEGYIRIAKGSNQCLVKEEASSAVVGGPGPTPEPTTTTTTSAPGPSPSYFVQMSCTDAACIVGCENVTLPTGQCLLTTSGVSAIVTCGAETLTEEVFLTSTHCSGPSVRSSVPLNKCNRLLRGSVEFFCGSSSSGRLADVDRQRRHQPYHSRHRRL
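Detergent-containing arm of a paired screen for aggregation-based inhibition: 0.01% Triton X-100 present. Cruzain at 1.5 nM cleaved 2 uM Z-FR-AMC at pH 5.5 with 5 mM DTT; AMC fluorescence gain over 60 s measured activity.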
SARS PLP yeast = blocks SARS-CoV papain-like protease in a yeast assay. S. cerevisiae expressing SARS-CoV PLpro, growth rescue; control for the full effect not named in the record. Potency, µM (titrated, usually from 32.9 µM), for the others: at the highest dose activity, positive = growth rescue. actives 0.19% (n = 330,000). AID 485353; active means well fitted rising curve with a large enough effect; inconclusive means small, poorly fitted or top-dose-only effect; inactive means no such curve, though single readings can be large or run the other way; note: 0% is about no effect; nearly all actives have a fitted effect of over 55% in size; growth read by luminescence after 48 h
MARV entry inh = Marburg virus entry inhibition; Potency, µM (titrated, usually from 37.8 µM), for inactives: at the highest dose activity change, negative = inhibition, usual class: inhibitors; actives 1.8% (n = 300,000); Marburg virus pseudotyped entry inhibition, cell reporter; control for the full effect not named in the record; about a third of the inactives were read at about 46 µM; AID 540276; active = well fitted inhibition curve with a large enough effect; inconclusive = small, poorly fitted or top-dose-only effect, or effect the other way; inactive = flat fitted curve, though single readings scatter; tested in HEK293 cells; about a fifth of its hits are not listed in these tables; note: % is set by controls: 0 for no effect and ±100 for the full control effect; luciferase read-out
Cruzain inh noDet = inhibitors of Trypanosoma cruzi cruzain without detergent. P25779. purified cruzain, Z-FR-AMC fluorescence, no detergent. Potency, µM, for inactives: max response, negative = inhibition, hits mostly inhibitors. actives 2.3% (n = 200,000). AID 1476;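 note: plate controls were enzyme without inhibitor for no effect and buffer without enzyme for full effect; nearly all actives have a fitted effect of over 40% in size; top concentration of the series not given in the record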
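Purified cruzain at 1.5 nM, pre-incubated 15 min with compound at room temperature in 100 mM sodium acetate pH 5.5, 5 mM DTT, 0.00005% Triton X-100. Reaction started with 2 uM Z-FR-AMC; AMC fluorescence increase over 60 s gives rate.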
RE007 growth inh = less growth of the S. pombe RE007 Vpr strain; Potency, µM (series often up to 92.2 µM), without a hit: at the top dose activity change, negative = less growth; actives 0.21% (n = 360,000); S. pombe RE007 Vpr strain, BacTiter-Glo ATP luminescence, 24 h; control for the full effect not named in the record; active = well fitted falling curve with a large enough effect; inconclusive = small, poorly fitted or top-dose-only effect; inactive = no such curve, though single readings can be large or run the other way;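 note: % is set by controls: 0 for no effect and ±100 for the full control effect; nearly all actives have a fitted effect of over 50% in size; the assay follows cell death caused by Vpr and the record does not say whether a fall means rescue or toxicity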
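Fission yeast RE007 carrying one integrated HIV-1 vpr copy, seeded at OD 0.01 in PMG+AL medium with 23 nL pinned compound. Grown 24 h at 30 degrees; viability read by BacTiter-Glo luminescence after 5 min.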
NS1 function inh = blocks influenza NS1 protein function; actives 0.4% (n = 270,000); S. cerevisiae slowed by influenza A NS1, growth recovery by OD600; Potency, µM (titrated, usually from 46.1 µM), for the others: at the highest dose activity, positive = more growth; active means well fitted rising curve with a large enough effect; inconclusive means small, poorly fitted or top-dose-only effect; inactive means no such curve, though single readings can be large or run the other way; note: nearly all actives have a fitted effect of over 50% in size
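Growth recovery, yeast-based: influenza A NS1 expressed in S. cerevisiae causes slow growth, and suppressors are detected by OD600. The parent strain without NS1 is used as positive control.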
2A StopGo = lowers the luciferase signal of an FMDV 2A StopGo reporter. Potency, µM (series often up to 57.9 µM), without a hit: at the highest dose signal change, negative = less light. actives 1.2% (n = 410,000). AID 1159524. human cells with a luciferase reporter of 2A StopGo recoding; control for the full effect not named in the record; active = well fitted falling curve with a large enough effect; inconclusive = small, poorly fitted or top-dose-only effect; inactive = no such curve, though single readings can be large or run the other way; tested in HEK293T cells; note: % is set by controls: 0 for no effect and ±100 for the full control effect; nearly all actives have a fitted effect of over 45% in size; luciferase light after 4 h
An asterisk follows results filed as active; ? = inconclusive; nt = no result given; & = joins results of further samples; [ ] = another dose, or the depositor's remark. Unless noted, calls come from the whole dose curve; as a rule, active = well fitted curve in the direction sought with a large enough effect; inconclusive = small, poorly fitted or top-dose-only effect, or another doubt; inactive = no such curve, though single readings can be large; an effect the other way counts as inactive or inconclusive. Potency is the fitted concentration of half-maximal effect. Rows were taken by chance. About 4.7% of those tested had a hit in this group.

structure	LASV entry inh	Cruzain Triton	SARS PLP yeast	MARV entry inh	Cruzain inh noDet	RE007 growth inh	NS1 function inh	2A StopGo
Cc1ccc(NC(=O)CS(=O)CC(=O)NC(C)CCc2ccco2)cc1Cl (stereo unspecified)	3.2%	4.4%	3.2%	-28.8%	?	0.5%	-11.9%	-2.3%
CSc1ccc(CNC(=O)C2CCN(c3nnc(-n4cccc4CNc4ccc(C)cc4)s3)CC2)cc1	nt	-2.8%	nt	-8.1%[46.1 µM]	-22.1%	nt	nt	-28.5%
CCn1c(=O)n(CC)c2cc(N3CCCC3)c(NC(=O)c3ccc(C)cc3)cc21	nt	nt	-0.4%	nt	nt	-3.4%	1.5%	?
O=C(CN1CCCC1)N1c2ccccc2Sc2ccccc21	9.5%	-15.2%	4.6%	-8.4%	?	?	?	-27.8%
CCOc1ccc(N=C(C)c2ccccc2O)cc1	-28.0%	-4.7%	-20.8%	-5.7%	-21.3%	-3.0%	-7.8%	18.1%
Cc1sc(N)nc1-c1c(C)n(C)c2ccccc12	3.9%[46.1 µM]	nt	-4.8%	-14.1%[46.1 µM]	nt	-9.2%	-5.5%	-23.1%
COc1cc(CN2CCc3nc(N4CCN(c5ccccc5F)CC4)ncc3C2)ccc1OC(C)C	-4.7%[46.1 µM]	2.3%	nt	nt	?	nt	nt	?
O=c1c2ccccc2ncn1Cc1ccco1	-14.8%	5.8%	2.9%	-0.2%&-0.2%	-1.1%	-2.4%	-6.1%	27.1%
Cc1c(C)c2ccc(OCC(=O)Nc3ccc(CN4CCOCC4)cc3)cc2oc1=O	?	nt	3.1%	?	nt	-1.8%	3.8%	?
CN(C)CCCN(C(=O)c1ccc(S(=O)(=O)N(C)Cc2ccccc2)cc1)c1nc2c(F)cccc2s1	?	nt	?	?	nt	13.8%	-7.6%	-8.3%
COc1ccccc1-n1c(SCC(=O)N(C)C)nnc1-c1ccco1	-0.5%[46.1 µM]	nt	nt	5.4%[46.1 µM]	nt	52.4%	nt	-12.7%
Cc1ccc(OCCC(=O)Nc2c(C)n(C)n(-c3ccccc3)c2=O)cc1	1.6%	4.5%	4.5%	0.6%	12.3%	19.5%	2.5%	-5.5%
S=c1[nH]nc(-c2cc(-c3ccccc3)n[nH]2)n1/N=C/c1ccc(Br)s1	nt	nt	1.3%	-27.7%[46.1 µM]	nt	3.2%	8.9%	?
CCOc1ccc(NC(=O)C(c2ccccn2)N(C(=O)CCl)c2ccc(OC)cc2)cc1 (stereo unspecified)	28.5%	-4.0%	-13.6%	?	-3.6%	-15.2%	?	13.1%
COc1cc(NC(=O)CCCc2nnc3n(CC(C)C)c(=O)c4sccc4n23)cc(OC)c1	17.5%[46.1 µM]	-1.4%	nt	nt	-13.7%	nt	nt	-10.9%
COc1cccc(Cn2c(CNS(=O)(=O)c3ccc4c(c3)CCCC4)nc3cccnc32)c1	-6.0%[46.1 µM]	-5.1%	nt	nt	-22.5%	nt	nt	56.6%[activator]
COc1ccc(CCN2CC34C=CC(O3)C(C(=O)NCc3ccccc3Cl)C4C2=O)cc1OC (stereo unspecified)	3.3%	-1.8%	-1.5%	-0.5%	-2.2%	-6.0%	4.1%	22.6%
CC1CCN(C(=O)C(C)Sc2nc(-c3ccccc3)cc(C(F)(F)F)n2)CC1 (stereo unspecified)	?	-4.9%&-6.0%	-12.6%	?	5.6%&11.9%	-2.6%	-8.8%	?
COc1ccc(S(=O)(=O)NC2CCCCC2)cc1F	-5.5%[46.1 µM]	nt	-11.2%	18.3%[46.1 µM]	nt	-4.0%	-66.9%	48.7%[activator]
Cc1cc(C)c(NS(=O)(=O)c2c(C(=O)N3CCOCC3)c(C)n(C)c2C)c(C)c1	nt	nt	-2.0%	nt	nt	6.3%	-4.8%	-11.4%
COc1ccc2sc(N(CCCN(C)C)C(=O)c3ccc(C(=O)c4ccccc4)cc3)nc2c1	?	nt	-3.8%	?	nt	-7.3%	nt	-16.9%
CCCc1cc(=O)oc2cc(C)cc(OCc3nn[nH]n3)c12	1.6%	-8.9%	-6.7%	11.8%	-20.2%	17.8%	8.8%	0.0%
O=C(COC(=O)c1ccccc1N1C(=O)C2C3CCC(C3)C2C1=O)c1ccccc1 (stereo unspecified)	1.0%	2.8%	-3.2%	24.5%	-2.2%	-6.9%	-9.5%	-15.5%
CC1=C(C(=O)OCc2ccccc2)C(c2cccnc2)n2ncnc2N1 (stereo unspecified)	?	1.9%	3.2%	2.6%	-2.7%	1.8%	1.2%	0.0%
CC(C)C(NC(=O)C1CCCCC1)C(=O)Nc1ccc2c(c1)OCCO2 (stereo unspecified)	13.2%	-1.5%	9.2%	?	-1.4%	-0.2%	?	1.0%
CC(C)N(CCO)C(=O)CCc1nnc(CCCc2ccccc2)o1	2.8%[46.1 µM]	nt	1.2%	?	nt	-11.8%	-2.3%	34.6%[activator]
Cc1ccnc2nc(C(=O)Nc3ccc(S(=O)(=O)N4CCCC4)cc3)nn12	nt	nt	-0.2%	nt	nt	-6.4%	9.1%	-21.1%
COc1ccc(OC)c(CN2CCN(C(=O)c3cccc(S(=O)(=O)Nc4ccc(F)cc4)c3)CC2)c1	-17.4%	nt	nt	-22.8%	nt	0.9%	nt	-15.1%
CC1CCN(CC(=O)c2c[nH]c3ccccc23)CC1	28.5%	1.8%	-0.8%	-0.3%	1.6%	8.2%	-2.4%	16.5%
Cc1ccc(N2C(=O)C3ON(c4ccccc4)C(c4ccncc4)C3C2=O)cc1 (stereo unspecified)	-0.9%	-3.0%	-10.8%	-10.6%	6.0%	-0.5%	-6.8%	49.7%[activator]

The list goes on.
structure	LASV entry inh	Cruzain Triton	SARS PLP yeast	MARV entry inh	Cruzain inh noDet	RE007 growth inh	NS1 function inh	2A StopGo
O=S(=O)(c1ccc(Cl)cc1Br)N1CCCCC1	-4.9%	-4.3%	-7.3%	-0.3%	-12.5%	-8.8%	-34.5%	-20.2%
COc1ccc(CCNC(=O)C(=O)NCC2OCCN2S(=O)(=O)c2ccc(Br)cc2)cc1 (stereo unspecified)	-17.1%	-4.8%	12.0%	2.9%	-2.3%	5.8%	0.7%	-18.2%
Cc1ccc(S(=O)(=O)NCC(=O)OCC(=O)NCc2cccs2)cc1	0.3%	nt	2.5%	?	nt	0.5%	nt	0.6%
Cn1c(=O)c2c(nc(SCC(=O)Nc3ccccc3N3CCCCC3)n2C)n(C)c1=O	-21.6%	2.1%	0.1%	?	2.2%	-6.1%	-38.2%	nt
CC(=O)Nc1ccc(S(=O)(=O)NCCc2cn3ccsc3n2)cc1	1.8%[46.1 µM]	1.7%	nt	nt	1.8%	nt	nt	-10.5%
Cc1sc2c(c1C)c(=O)n(Cc1ccccc1)c(=O)n2CC(=O)N(C)c1ccccc1	-14.3%[46.1 µM]	-2.1%	nt	7.7%[46.1 µM]	8.9%	nt	nt	-11.9%
CCOC(=O)N1CCN(S(=O)(=O)c2c(C)nc3scc(C)n3c2=O)CC1	nt	nt	1.7%	nt	nt	6.2%	6.5%	-10.9%
CC(C)C(NC(=O)c1ccccc1)c1nnc(SCC(=O)NC2CCCC2)n1C (stereo unspecified)	21.6%	nt	4.3%	3.4%[46.1 µM]	nt	27.8%	6.4%	18.4%
COc1ccc(CCNC(=O)Cn2cnc3ccccc3c2=O)cc1OC	-2.5%	-0.5%	-31.7%	30.9%	6.7%	-1.1%	-0.6%	0.0%
O=C(CS(=O)c1ccc(Br)cc1)N1CCOCC1 (stereo unspecified)	nt	nt	0.3%	nt	nt	5.8%	-1.7%	-3.0%
Cc1ccc(NC(=O)COC(=O)C(NS(=O)(=O)c2ccc(Cl)cc2)C(C)O)c(Br)c1 (stereo unspecified)	-1.3%	-13.1%	?	13.5%	?	26.3%	-22.1%	4.1%
O=C(CSc1ccc(Br)cc1)Nc1ccccc1Oc1ccccc1	-0.6%	-6.7%	-2.9%	-22.2%	11.6%	-4.9%	4.4%	-19.3%
O=C1CSC(=Nc2ccc(F)cc2)N1	nt	nt	0.2%	nt	nt	0.0%	6.3%	0.0%
CCOCCc1nn2c(=O)cc(CSCC(=O)Nc3ccc(OC)cc3)nc2s1	nt	nt	-3.6%	nt	nt	-2.2%	9.2%	2.7%
CCOC(=O)c1c(NC(=O)c2ccccc2N(C)S(=O)(=O)c2ccccc2)sc2c1CCCC2	?	-2.1%	7.8%	-19.6%	20µM*	-4.3%	?	-10.6%
COc1cccc(-c2ccc(-c3noc(-c4ccccc4Br)n3)c(OC)n2)c1	-7.6%[46.1 µM]	-0.4%	nt	9.9%[46.1 µM]	0.0%	nt	nt	-4.6%
Cc1ccc(OCC(=O)Nc2ccccc2C(=O)NC2CC2)cc1C	nt	nt	-2.7%	nt	nt	-2.7%	16.3%	-11.1%
CCc1nn2c(=O)c(S(=O)(=O)Nc3ccccc3)c(C)nc2s1	-3.6%[46.1 µM]	nt	-1.0%	-8.3%[46.1 µM]	nt	-10.1%	3.7%	15.9%
CC(=O)c1ccc(NC(=O)Nc2ccc3c(c2)N(C)C(=O)CS3)cc1	21.1%	-8.6%	-6.9%	8.9%	-12.9%	16.5%	2.0%	-25.4%
O=C(COC(=O)CNS(=O)(=O)c1ccc2ccccc2c1)Nc1ccccc1Sc1ccccc1	11.9%	?	1.4%	-11.3%	-8.9%	24.8%	-1.4%	-6.7%
CN(C)c1cc[n+](CC(=O)Nc2c(Cl)cc(Cl)cc2Cl)cc1	10.1%	nt	-2.2%	3.5%[46.1 µM]	nt	-23.0%	1.4%	-9.4%
Cn1cccc1C(=O)OCC(=O)NC(=O)c1ccc(Cl)cc1	19.5%	nt	-27.5%	?	nt	-3.4%	nt	-1.2%
O=[N+]([O-])c1ccc(N2CCN(CCO)CC2)cc1Sc1nc2ccccc2[nH]1	nt	-6.4%	1.2%	nt	-6.5%	-9.7%	-11.7%	-7.2%
